# SARS PLpro yeast: blocks SARS-CoV papain-like protease in a yeast assay | S. cerevisiae expressing SARS-CoV PLpro, growth rescue; control for the full effect not named in the record | Potency, µM (titrated, usually from 32.9 µM), inactives show at the highest dose activity, positive = growth rescue | 330,000 compounds, 0.19% hits | AID 485353; also: 0% is about no effect; nearly all actives have a fitted effect of over 55% in size; growth read by luminescence after 48 h
# RE007 growth inh: less growth of the S. pombe RE007 Vpr strain; S. pombe RE007 Vpr strain, BacTiter-Glo ATP luminescence, 24 h; control for the full effect not named in the record; Potency, µM (series often up to 92.2 µM), for inactives: at the highest dose activity change, negative = less growth; 360,000 compounds, 0.21% hits; AID 651644; active = well fitted falling curve with a large enough effect; inconclusive = small, poorly fitted or top-dose-only effect; inactive = no such curve, though single readings can be large or run the other way;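 also: % is scaled to controls: 0 for no effect and ±100 for the full control effect; nearly all actives have a fitted effect of over 50% in size; the assay follows cell death caused by Vpr and the record does not say whether a fall means rescue or toxicity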
#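 Fission yeast strain RE007, carrying one chromosomally integrated HIV-1 vpr copy, was seeded at OD 0.01 in PMG+AL medium with 23 nL pinned compound. After 24 h at 30 °C and 99% humidity, viability was read by BacTiter-Glo luminescence.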
# LASV entry inh: inhibitors of Lassa virus binding or cell entry; 300,000 compounds, 1.2% hits; AID 540256; Potency, µM (doses to about 37.9 µM), for inactives: at the top dose activity change, negative = inhibition, actives largely listed as inhibitors; Lassa virus pseudotype entry inhibition, cell reporter; control for the full effect not named in the record; active means well fitted inhibition curve with a large enough effect; inconclusive means small, poorly fitted or top-dose-only effect, or effect the other way; inactive means flat fitted curve, though single readings scatter; tested in HEK293 cells; also: % is scaled to controls: 0 for no effect and ±100 for the full control effect; nearly all actives have a fitted effect of over 50% in size; luciferase read-out
# NS1 function inh: inhibitors of influenza NS1 protein function | S. cerevisiae slowed by influenza A NS1, growth recovery by OD600 | Potency, µM (series often up to 46.1 µM), without a hit: at the highest dose activity, positive = more growth | 270,000 compounds, 0.4% hits | AID 2326; also: actives are rising curves; nearly all actives have a fitted effect of over 50% in size
#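 Growth recovery, yeast-based: influenza A NS1 expressed in S. cerevisiae causes slow growth, and suppressors are detected by OD600. The parent strain without NS1 is used as positive control.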
# MARV entry inh: blocks Marburg virus binding to or entry into cells; Marburg virus pseudotyped entry inhibition, cell reporter; control for the full effect not named in the record; about a third of the inactives were read at about 46 µM; 300,000 compounds, 1.8% hits; Potency, µM (doses to about 37.8 µM), for the others: at the top dose activity change, negative = inhibition, usual class: inhibitors; active = well fitted inhibition curve with a large enough effect; inconclusive = small, poorly fitted or top-dose-only effect, or effect the other way; inactive = flat fitted curve, though single readings scatter; tested in HEK293 cells; about a fifth of its hits are not listed in these tables; also: % is scaled to controls: 0 for no effect and ±100 for the full control effect; luciferase read-out
# 2A StopGo: lowers the luciferase signal of an FMDV 2A StopGo reporter; human cells with a luciferase reporter of 2A StopGo recoding; control for the full effect not named in the record; Potency, µM (highest dose often 57.9 µM), without a hit: top-dose signal change, negative = less light; 410,000 compounds, 1.2% hits; active = well fitted falling curve with a large enough effect; inconclusive = small, poorly fitted or top-dose-only effect; inactive = no such curve, though single readings can be large or run the other way; tested in HEK293T cells; also: % is scaled to controls: 0 for no effect and ±100 for the full control effect; nearly all actives have a fitted effect of over 45% in size; luciferase light after 4 h
# Cruzain noTriton: blocks cruzain activity in detergent-free assay | Potency, µM, for inactives: max response, negative = inhibition, hits mostly inhibitors | purified cruzain, Z-FR-AMC fluorescence, no detergent | AID 1476 | 200,000 compounds, 2.3% hits; active = well fitted curve in the direction sought with a large enough effect; inconclusive = small, poorly fitted or top-dose-only effect, or another doubt; inactive = no such curve, though single readings can be large; an effect the other way counts as inactive or inconclusive;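 also: plate controls were enzyme without inhibitor for no effect and buffer without enzyme for full effect; nearly all actives have a fitted effect of over 40% in size; top concentration of the series not given in the record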
# Target sequence (P25779 123-467 limits assumed): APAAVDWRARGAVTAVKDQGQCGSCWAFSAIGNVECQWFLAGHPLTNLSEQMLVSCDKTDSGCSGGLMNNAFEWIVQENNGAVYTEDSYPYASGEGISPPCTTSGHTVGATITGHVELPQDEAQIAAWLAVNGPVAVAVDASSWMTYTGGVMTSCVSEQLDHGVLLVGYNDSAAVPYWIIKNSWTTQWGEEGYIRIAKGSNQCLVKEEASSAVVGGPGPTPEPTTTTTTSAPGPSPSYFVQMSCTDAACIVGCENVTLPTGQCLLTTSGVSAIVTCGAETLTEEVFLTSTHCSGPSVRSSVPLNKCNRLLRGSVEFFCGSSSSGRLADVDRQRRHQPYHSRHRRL
#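 Purified cruzain at 1.5 nM, pre-incubated 15 min with compound at room temperature in 100 mM sodium acetate pH 5.5, 5 mM DTT, 0.00005% Triton X-100. Reaction started with 2 uM Z-FR-AMC; AMC fluorescence increase over 60 s gives rate.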
# Cruzain inh Det: blocks cruzain activity in presence of Triton detergent. 200,000 compounds, 0.43% hits. purified cruzain, Z-FR-AMC fluorescence, 0.01% Triton. P25779. Potency, µM, for the others: max response, negative = inhibition, actives largely listed as inhibitors. AID 1478; active = well fitted curve in the direction sought with a large enough effect; inconclusive = small, poorly fitted or top-dose-only effect, or another doubt; inactive = no such curve, though single readings can be large; an effect the other way counts as inactive or inconclusive;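 also: plate controls were neutral wells for no effect and buffer without enzyme for full effect; nearly all actives have a fitted effect of over 40% in size; top concentration of the series not given in the record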
#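 In this qHTS format, compounds are incubated with 1.5 nM cruzain for 15 min at room temperature before 2 uM Z-FR-AMC is added. Release of AMC is followed at 360/450 nm, and progress is taken as the 60 s fluorescence difference.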
# Starred values were filed as active, the others as inactive; ? = inconclusive; . = no result given; & = joins results of further samples; [ ] = dose if it differs, or a comment. Unless noted, calls follow the shape of the dose curve; as a rule, active means well fitted rising curve with a large enough effect; inconclusive means small, poorly fitted or top-dose-only effect; inactive means no such curve, though single readings can be large or run the other way. Potency is read from the fitted curve at half-maximal effect.
SMILES,SARS PLpro yeast,RE007 growth inh,LASV entry inh,NS1 function inh,MARV entry inh,2A StopGo,Cruzain noTriton,Cruzain inh Det
Cc1ccc(C)c(NC(=O)CN(C)C(=O)C2CCN(S(=O)(=O)c3ccc4c(c3)OCCO4)CC2)c1,1%,2%,-1%,.,?,-9%,.,.
CC(C)CCNC(=O)C(c1ccc(O)cc1)N(Cc1cccs1)C(=O)C1COc2ccccc2O1 (configuration not stated),4%,3%,16µM*,?,?,?,1%,-6.5%
Cc1ccc(S(=O)(=O)NCCC(=O)NNC(=O)C2COc3ccccc3O2)cc1 (configuration not stated),.,10%,-5%,.,-19%,-15%,.,.
O=C(NCc1ccc(Cl)cc1)NCC(F)(F)F,18%,-4%,9%,-4%,7%,-10%,-17%,-1.4%
O=C(O/N=C/c1cccc([N+](=O)[O-])c1)C1CC1,-1%,5%,?,9%,2%,2%,-1%,2.1%
Cc1ccc(C)c(OCC(=O)N2CCCN(C)CC2)c1,2%,2%,13%,-4%,20%,-22%,2%,-0.7%
COc1ccc(N2C(=O)C3NN=C(C(=O)OCc4ccccc4)C3C2=O)cc1 (configuration not stated),-1%,8%,10%[46.1 µM],1%,11%[46.1 µM],11%,.,.
COc1ccc(/C=C/C(=O)OCC(=O)Nc2ccc(Cl)cn2)cc1,-7%,-11%,-31%,.,9%,4%,.,.
Cc1ccc(S(=O)(=O)N2c3ccccc3NC(=O)C2CC(=O)Nc2ccccc2)cc1 (configuration not stated),-1%,5%,-23%,-12%,-12%,-12%,2%,-3.3%
O=C(CSc1nnc(-c2ccc(Cl)cc2Cl)n1C1CCCCC1)N1CCCC1,-29%,-11%,-15%,4%,-11%,-6%,?,3.4%
CCOC(=O)Cc1csc(NC(=O)CSc2nnnn2-c2ccc(C)cc2C)n1,-3%,-3%,-2%,6%[9.22 µM],-3%,0%,19%,-4.5%
Cc1ccc(C(=O)Nc2cc3c(oc2=O)CCCC3=O)cc1,3%,-1%,19%,-17%,?,64%[activator],-9%,-4.3%
O=C(COc1ccc(Cl)cc1Cl)Nc1cccc2cccnc12,.,.,4%[46.1 µM],.,?,-13%,-2%,1.0%
CCn1c(C)nc2cc(-c3nnc(-c4c(-c5ccccc5)noc4C)o3)ccc21,-9%,-1%,-10%,-2%,-49%,-28%,?,-3.5%
O=C(Nc1ccc(F)cc1)NC1CCN(Cc2ccccc2)CC1,0%,0%,.,1%,.,0%,.,.
Cc1ccc(S(=O)(=O)Nc2cc3c(C(=O)OCc4ccccc4)c(C)oc3c3ccccc23)cc1,.,.,?,.,-19%[46.1 µM],25%,7.9µM*,-2.8%
CC(=O)Nc1c(Cl)c(Cl)c2c(c1Cl)C(=O)c1cc(Cl)ccc1-2,.,-1%,3%,.,15%,-13%,.,.
O=C(Nc1ccc(Cc2ccncc2)cc1)c1ccc(S(=O)(=O)N2CCOCC2)cc1,-1%,-11%,?,-42%,?,18µM*,3%,5.8%
Cc1ccc(NC(=O)C2CCN(c3ncnc4c3nc3n4CCCCC3)CC2)cc1Cl,-2%,8%,.,10%,.,?,.,.
C=CCCN(Cc1ccccc1)S(=O)(=O)c1ccccc1Br,-5%,5%,.,-4%,.,-2%,.,.
CC(C)COc1ccc(C(=O)N/C(=C\c2cccc([N+](=O)[O-])c2)C(=O)O)cc1,1%,-13%,9%,7%,-7%[46.1 µM],4%,.,.
O=C(N/N=C/c1c(Cl)cccc1Cl)C(=O)NC1CC1,1%,-3%,22%[46.1 µM],.,?,4%,.,.
COC(c1ccc(Cl)cc1)(c1ccc(Cl)cc1)C(Oc1nc(C)cc(C)n1)C(=O)O (configuration not stated),1%,12%,.,29%,.,-13%,.,.
Nc1ccc(Cl)cc1/C(=N/O)c1ccccc1,0%,-18%,?,5%,-22%,-16%,7%,-3.6%
O=C(Nc1cccc(Cl)c1)N1CCSc2cc(Cl)ccc21,-16%,-18%,1%,-57%,-4%,-28%,-1%,-7.6%
C=CCNC(=S)Nc1ccc2nc(C)c(C)nc2c1,5%,-6%,27%,3%,3%,30%,-17%,-6.3%
COC(=O)c1ccc(NC(=O)C(OC)c2ccccc2)cc1 (configuration not stated),-1%,-2%,.,2%,17%[46.1 µM],17%,.,.
COc1ccc(OCC(=O)Nc2ccc(C(=O)OCc3cc(=O)n4nc(C)sc4n3)cc2)cc1,.,.,2%[46.1 µM],.,.,10µM*,13%,-1.3%
CCC(=O)NNc1ncnc2ccccc12,13%,9%,.,5%,.,-5%,-4%,-5.2%
Cc1ccsc1CNC(=O)c1c(-c2ccccc2)noc1C,0%,2%,-10%[46.1 µM],-7%,?,-16%,.,.
CP(=O)(Nc1ccc(Cl)cc1)c1nc2c(s1)CCCC2 (configuration not stated),2%,8%,.,0%,.,-21%,.,.
CCOC(=O)COc1ccc(C2CC(C)=NN2c2ccccc2)cc1 (configuration not stated),-3%,2%,-6%[46.1 µM],.,?,-6%,.,.
CCOc1ccccc1C(=O)N1CCC(C(=O)c2ccc(F)cc2)CC1,12%,-6%,-1%,-6%,-27%,0%,14%,-0.1%
O=C(O)C1=C(OCc2ccc(F)c(F)c2)C(=O)NCC1,0%,-6%,9%,2%,22%[46.1 µM],-7%,.,.
CCOC(=O)c1[nH]c(C)c(C(=O)OCC(=O)N2CCc3ccccc32)c1C,-6%,-17%,-22%,0%,?,7%,-19%,-0.6%
O=C(Nc1ccccc1N1CCCC1)c1cccnc1,16%,6%,2%,-1%,3%,16%,-7%,0.0%
Cc1c(C(=O)O)oc2ccc(S(=O)(=O)N3CCCCC3C(=O)O)cc12 (configuration not stated),3%,16%,.,1%,.,-19%,-18%,-2.3%
O=C(c1cnc2sccn2c1=O)N1CCc2ccccc2C1,2%,0%,?,-8%,10%&-4%,29%,-6%,0.9%
COc1ccc(C(=S)N2CCOCC2)cc1OC(=O)c1ccccc1Cl,1%,6%,-26%[46.1 µM],-2%,?,3%,.,.
Cn1nc(C(C)(C)C)cc1C(=O)Nc1nc2c(s1)C(=O)CC(C)(C)C2,14%,8%,17%,-7%,20%,-28%,14%,-15%
CCO[C@@H]1OC(C(=O)O)=C[C@H](C2CCCCC2)[C@H]1CCCO,-1%,19%,.,2%,.,-9%,.,.
Cc1noc(C)c1COC(=O)c1cccc(S(=O)(=O)N2CCOCC2)c1,-1%,-12%,-10%,.,-7%,0%,.,.
Cc1cc(Cl)c2cc3ccccc3cc2n1,0%,-14%,0%,-1%,?,26%,.,.
CNC(=O)c1sccc1Oc1ccc(F)cc1[N+](=O)[O-],0%,22%,0%,.,0%[46.1 µM],-15%,.,.
CCSC(C)CC1CC(=O)CC(=O)C1 (configuration not stated),-11%,2%,1%,11%,16%,-24%,3%,0.3%
COc1ccc(C(=O)NC(=O)NC2(C(Cl)(Cl)Cl)OCCO2)cc1,-2%,-6%,?,2%,?,7%,.,.
C/C(=N\NC(=O)c1c(Cl)c(C)nn1C)c1ccc(NC(=O)COc2ccc(Cl)cc2C)cc1,3%,-17%,-18%,2%,-18%,?,?,-3.9%
Clc1ccc(Cn2nnc(-c3ccc(N4CCOCC4)cc3)n2)cc1,-4%,-2%,0%,-3%,12%,.,1%,-5.5%
Cc1ccc(NC(=O)c2ccc(S(=O)(=O)Nc3c(C)n(C)n(-c4ccccc4)c3=O)cc2)nc1,-2%,0%,15%,.,?,-12%,.,.
O=C(CN1CCC(Cc2ccccc2)CC1)NCCc1ccc(F)cc1,-2%,-6%,?,.,19%[46.1 µM],-24%,.,.
CCOc1nc(NC2CCCCC2)nc(NC(C)(C)C)n1,-14%,-18%,3%,5%,?,0%,-9%,-9.7%
Cc1cc(C)c(C#N)c(SCCN2CCOCC2)n1,-1%,9%,14%,-9%,?,-1%,.,.
CCOCc1nnc(NS(C)(=O)=O)s1,3%,10%,1%,3%,-3%,8%,1%,0.3%
COc1ccc(CNC(=O)Cn2c(=O)oc3cc(S(=O)(=O)N4CCCC4)ccc32)cc1,6%,4%,?,-19%,?,3%&7%,12%,-4.4%
Cc1ccccc1C(=O)Nc1nc2c(s1)CC(C(C)(C)C)CC2 (configuration not stated),.,.,?,.,7%[46.1 µM],-11%,18%,-1.0%
CCc1ccccc1NC(=O)CCCSc1nc(-c2ccco2)cc(C(F)(F)F)n1,.,.,9%[46.1 µM],.,?,-7%,-2%,-2.0%
COc1cc(-n2c(=O)c3ccccc3n(Cc3cc(=O)n4ccccc4n3)c2=O)cc(OC)c1OC,1%,-5%,0%,-7%,?,0%,?,-1.7%
O=C(CSc1nnc(-c2ccncc2)o1)NCc1ccc(Cl)cc1,15%,12%,7%,13%,?,-22%,23%,0.8%
O=C(CCCOc1ccccc1)N1CCN(c2ccc(F)cc2)CC1,9%,-14%,18%,-58%,9%,-4%,20%,-7.6%
O=C(Cn1c(-c2ccccn2)nc2ccccc21)N/N=C/c1cccnc1,-1%,-9%,-3%,3%,?,-14%,.,.

# Later entries.
SMILES,SARS PLpro yeast,RE007 growth inh,LASV entry inh,NS1 function inh,MARV entry inh,2A StopGo,Cruzain noTriton,Cruzain inh Det
Cc1ccc(N(C(=O)C2CCC(=O)N2)C2(C(=O)NC3CCCCC3)CCCCC2)cc1 (configuration not stated),8%,-2%,20%,-5%,-1%[46.1 µM],-10%,13%,-0.6%
Cc1oc2ccc(OC(=O)COc3c(F)c(F)c(F)c(F)c3F)cc2c1C(=O)OC(C)C,-1%,-13%,?,-9%,1%[46.1 µM],30%[activator],-6%,-2.9%
COc1cc2c(cc1NC(=O)COC(=O)c1ccc(C(C)(C)C)cc1)oc1ccccc12,-11%,1%,8%,4%,17%[46.1 µM],-2%,13µM*,-1.1%
COc1ccc(N2CCN(S(=O)(=O)c3c(C)nc4sc(C)cn4c3=O)CC2)cc1,.,.,-4%[46.1 µM],.,.,-19%,-5%,-0.7%
CCOC(=O)C1=C(C)Nc2ncnn2C1c1c[nH]c2ccccc12 (configuration not stated),15%,-1%,2%,6%,13%,-1%,-4%,-3.6%
CC(C)c1cc(C(=O)O)c2ccccc2n1,-2%,0%,.,-24%,.,-3%,.,.
